GLA inh pH 4.5: blocks human alpha-galactosidase A at pH 4.5. AID 1467. activity change, negative = inhibition, % at 105 µM. 230,000 tested, under 10 active. purified enzyme, 4-MU-alpha-Gal fluorescence, pH 4.5. P06280; inconclusive = small, poorly fitted or top-dose-only inhibition, or a rising curve; inactive = flat fitted curve, though single readings scatter; no compound was filed as active;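 also: 0% = full activity with enzyme and -100% = basal without enzyme; dose as in the result columns while the protocol names 77 µM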
Target sequence (P06280 whole entry, looked up): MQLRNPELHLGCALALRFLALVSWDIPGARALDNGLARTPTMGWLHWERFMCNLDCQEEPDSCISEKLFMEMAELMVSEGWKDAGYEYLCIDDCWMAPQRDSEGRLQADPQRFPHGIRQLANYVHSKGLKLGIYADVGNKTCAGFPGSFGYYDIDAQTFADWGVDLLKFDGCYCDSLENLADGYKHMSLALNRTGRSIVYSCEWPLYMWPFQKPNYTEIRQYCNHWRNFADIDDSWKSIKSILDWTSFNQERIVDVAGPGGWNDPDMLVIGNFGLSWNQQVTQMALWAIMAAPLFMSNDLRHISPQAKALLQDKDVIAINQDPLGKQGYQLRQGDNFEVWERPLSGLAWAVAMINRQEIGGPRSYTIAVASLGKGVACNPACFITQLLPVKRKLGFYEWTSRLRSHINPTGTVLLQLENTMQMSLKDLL
miR-21 FLuc: miR-21 reporter, rising signal. HeLa miR-21 FLuc reporter, luciferase, 48 h. Potency, µM (highest dose often 38.3 µM), for the others: top-dose reporter change, positive = more light. 340,000 tested, under 10 active. AID 2288; active = well fitted rising curve with a large enough effect; inconclusive = small, poorly fitted or top-dose-only effect; inactive = no such curve, though single readings can be large or run the other way;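 also: % of control where 0% means no effect; miR-21 action dims this reporter so a rising signal means less miR-21 action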
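Compounds were titrated across several concentrations (up to approximately 40 uM) and incubated 48 hours with HeLa miR-21-FLuc reporter cells (miR-21 target sequence downstream of FLuc, endogenous miR-21). Readout was firefly luciferase luminescence after lytic detection reagent.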
Rango-impB inh: Rango-importin beta binding inhibition; Rango CFP/YFP FRET sensor + importin beta, 45 min; Potency, µM (doses to about 92.2 µM), inactives show at the highest dose inhibition of complex formation; actives 0.031% (n = 340,000); AID 540263; active = rising FRET ratio curve, often small or poorly fitted; inconclusive = mostly compound fluorescence or quenching in the first reads; inactive = flat curves in all reads;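 also: potency is read from the fitted curve at half-maximal effect; 0% = DMSO wells and 100% = buffer wells lacking importin beta; nearly all actives have a fitted effect of over 15% in size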
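FRET biosensor (snurportin 1 IBB flanked by EYFP and cerulean), 50 nM, with compound 5 min, then 0.125 microM importin beta in PBS, 1 mM DTT, 0.02% Tween-20, 0.1% BSA. CFP/YFP ratio read after 45 min at room temperature; pre-read flags interference.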
Rango dissoc inh: inhibitors of RanGTP-induced Rango-importin beta complex dissociation; Biochemical FRET Rango-importin beta, RanGTP-induced dissociation; O95149+P62826; actives 0.071% (n = 340,000); Potency, µM (doses to about 46.1 µM), for inactives: at the highest dose activity change, negative = inhibition; active means falling FRET ratio curve, often poorly fitted, with flat reads before Ran was added; inconclusive means other falling curves, or compound fluorescence or quenching; inactive means flat or rising ratio curve;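 also: potency is read from the fitted curve at half-maximal effect; % of control where 0% means no effect; nearly all actives have a fitted effect of over 45% in size; -100% = wells without RanGTP and RCC1; the record marks most hits as doubtful in a second field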
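FRET read at 45 min, room temperature: inhibitors block the CFP/YFP signal rise when RanGTP (0.6 uM Ran, 2 mM GTP, 0.2 uM RCC1) frees Rango (0.1 uM) from importin beta (0.25 uM). Pre-read after 5 min compound exposure flags interference.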
Numbers without * were called inactive; ? = inconclusive; . = no result given; & = joins results of further samples.

GLA inh pH 4.5 | miR-21 FLuc | Rango-impB inh | Rango dissoc inh | Structure
. | . | -0.9% | 1% | CCOC(=O)C1=C(COC(=O)CCOc2cc(C)ccc2C)NC(=O)NC1C (stereo not given)
. | 0% | -3.8% | -3% | C=CCn1c(CNS(=O)(=O)c2ccc(F)cc2)n[nH]c1=S
. | -1% | -1.2% | -4% | COc1ccc(CCC(C)N2CCOCC2)cc1 (stereo not given)
7 | 1% | -2.3% | -3% | CC(=O)c1c(Nc2cccc(F)c2)oc(C)cc1=O
. | . | 2.1% | 6% | COc1cccc(NC(=O)CN(C)C(=O)Cc2ccc3c(c2)OCCO3)c1
. | 8% | -5.1% | -1% | NS(=O)(=O)c1ccc(CCNC(=O)C2CCCN2S(=O)(=O)c2cccc3nsnc23)cc1 (stereo not given)
1 | -8% | -2.8% | -6% | CCCCn1c(CN2CCN(CCO)CC2)nc2ccccc21
-5 | -1% | -0.4% | -7% | Cc1ccc(CN2CCN(c3ncccn3)CC2)o1
. | . | -1.5% | 6% | Cc1nc(SCC(=O)NCc2ccc3c(c2)OCO3)nc(C)c1C
-3 | -80% | -2.0% | -2% | Nc1c(C(=O)N/N=C/c2ccccc2)cnn1-c1ccccc1

Entries of single compounds as entered above.
C=CCn1c(CNS(=O)(=O)c2ccc(F)cc2)n[nH]c1=S as listed: GLA inh pH 4.5 = .; miR-21 FLuc = 0%; Rango-impB inh = -3.8%; Rango dissoc inh = -3%
COc1cccc(NC(=O)CN(C)C(=O)Cc2ccc3c(c2)OCCO3)c1 as listed: GLA inh pH 4.5 = .; miR-21 FLuc = .; Rango-impB inh = 2.1%; Rango dissoc inh = 6%
CC(=O)c1c(Nc2cccc(F)c2)oc(C)cc1=O as listed: GLA inh pH 4.5 = 7; miR-21 FLuc = 1%; Rango-impB inh = -2.3%; Rango dissoc inh = -3%

Returning to the listing, starting three compounds before the break.
GLA inh pH 4.5 | miR-21 FLuc | Rango-impB inh | Rango dissoc inh | Structure
-5 | -1% | -0.4% | -7% | Cc1ccc(CN2CCN(c3ncccn3)CC2)o1
. | . | -1.5% | 6% | Cc1nc(SCC(=O)NCc2ccc3c(c2)OCO3)nc(C)c1C
-3 | -80% | -2.0% | -2% | Nc1c(C(=O)N/N=C/c2ccccc2)cnn1-c1ccccc1
6 | 0% | 3.0% | 0% | COc1ccc2[nH]c(=O)c(CN(C(=O)C3CCCO3)c3ccc(C)c(C)c3)cc2c1 (stereo not given)
-13 | -5% | 0.7% | -6% | CCOC(=O)c1c(NC(=O)Cn2nc(C(F)(F)F)cc2C)sc2c1CCC2
. | . | -1.8% | -4% | CCn1nnnc1SCC(=O)N1CCN(Cc2ccc3c(c2)OCCO3)CC1
. | -7% | -0.2% | -4% | Clc1ccccc1Nc1nc(-c2ccncc2)nc2ccccc12
-5 | 10% | 2.2% | 14% | CC(CCc1ccccc1)NC(=O)COC(=O)C1CCC(C(C)(C)C)CC1 (stereo not given)
-10 | 2% | 0.2% | -3% | Cc1cc(N/N=C/c2ccc(F)cc2)nc(NCc2ccccc2)n1
-3 | 7% | -0.7% | 13% | O=C1C=C(N2CCCCC2)C2(CCCCC2)O1
-2 | 0% | 2.0% | 1% | Cc1nc(SCC(=O)NC2CCCC2)[nH]c(=O)c1Cc1ccccc1
. | . | 6.2% | 13% | Nc1ncnc2c1ncn2[C@@H]1O[C@H](CNC(=O)[C@@H]2CCC(=O)N2)[C@@H](O)[C@H]1O
3 | 20% | -2.2% | -5% | COc1ccc(OC)c(NS(=O)(=O)c2ccc(N3CCCC3=O)cc2)c1
-8 | -24% | 0.3% | -6% | O=C(CSc1ncn[nH]1)c1ccc2c(c1)OCO2
-4 | -3% | -3.1% | 5% | COc1ccc(CCNC(=O)CCCN2C(=O)c3ccccc3C2=O)cc1OC
-14 | 4% | -0.9% | 0% | CC(=O)Nc1ccc(NC(=O)CSc2nnc(CNc3ccc(F)cc3)n2CC2CCCO2)cc1 (stereo not given)
-4 | -2% | 0.2% | -8% | CCCSc1nc2c(c(=O)n1-c1ccc(OCC)cc1)SCC2
. | . | 2.8% | 1% | CN(CC(=O)Nc1ccc(F)cc1)C(=O)Cn1cnc2ccc([N+](=O)[O-])cc2c1=O
-10 | 6% | ? | 1% | Cc1cc(C(=O)Cn2nc(C(=O)O)c3ccccc3c2=O)c(C)n1CCc1ccc(Cl)cc1
. | . | -0.5% | -7% | CCN1C(=O)C(=O)N(CC(=O)N2CCN(c3ccccc3)CC2)C1=O
-3 | 1% | -0.5% | 19% | Nc1ccccc1N1CCN(C(=O)c2ccccc2)CC1
-6 | -1% | -0.1% | -3% | Cc1cccc(NC(=O)CCCSc2nc3ccccc3[nH]2)c1
-4 | 5% | 0.8% | 10% | O=C1N=C(N2CCC(Cc3ccccc3)CC2)S/C1=C/c1cn[nH]c1-c1ccccc1
. | -21% | -0.2% | 31% | CCc1ccc2[nH]c3nc(SCCN4CCOCC4)nnc3c2c1
. | -3% | -1.5% | -3% | O=C1NC2(CCCCCC2)C(=O)N1Cc1c(F)cccc1Cl
. | . | -3.2% | -1% | COc1cccc(NC(=O)CN(C)C(=O)CCCNC(=O)c2ccc(Cl)cc2)c1
2 | -2% | -0.3% | 4% | CCOc1ccccc1CN1CCC(O)CC1
. | -6% | -1.1% | 11% | O=C(CN1CCN(c2ccc(Cl)cc2)CC1)c1ccccc1
. | . | 4.1% | 0% | O=C1COc2ccc(C(=O)COC(=O)c3ccc(Cl)cc3[N+](=O)[O-])cc2N1
-12 | -1% | 7.1% | 14% | CCOC(=O)C(C(=O)OCC)c1cc(Br)c2noc3c2c1C(=O)c1ccccc1-3
. | . | -4.9% | ? | COc1ccc([C@H]2CC(=O)C=C(/C=C/c3ccccc3)C2)cc1OC
-2 | -4% | -0.4% | -3% | COCCCNCCOc1ccc(C(C)(C)c2ccccc2)cc1
. | . | 3.6% | 19% | O=C(O)c1cccc(N/N=C(\N=Nc2ccccc2)c2ccccc2)c1
2 | -2% | -4.2% | 1% | CC(NC(=O)c1ccccc1)C(=O)OCC(=O)N1c2ccccc2Sc2ccccc21 (stereo not given)
. | -1% | 0.6% | -10% | CCOc1cc(CNS(=O)(=O)c2cn(C)cn2)cc(OCC)c1OCC
1 | -6% | 3.8% | 8% | CCOC(=O)Cc1csc(NS(=O)(=O)c2ccccc2)n1
-8 | -11% | -0.4% | -7% | CC(=O)Nc1ccc(NS(=O)(=O)c2cc(-c3n[nH]c(=O)c4ccccc34)ccc2C)cc1
7 | -7% | 1.5% | -2% | CCN(C(=O)c1c(OC)cccc1OC)c1nnc(-c2cccnc2)s1
5 | -3% | -0.1% | 5% | Cc1ccc(/C=C/C(=O)NC(=S)Nc2ccccc2C(=O)NC2CCCCC2)cc1
-12 | -5% | 4.3% | 23% | O=C(CSCc1ccccc1Cl)Nc1c[nH]c(=O)[nH]c1=O
. | . | 1.0% | 31% | CCCCOc1ccc(/C=C(\C#N)C(=O)NC2CC2)cc1
4 | -2% | 8.0% | 0% | Cc1ccc(C(NC(=O)N2CCOCC2)C(Cl)(Cl)Cl)cc1F (stereo not given)
-5&3 | . | 0.9% | 11% | O=C1C(SCCO)=C(SCCO)C(=O)c2ccccc21
. | -12% | 0.0% | 1% | COc1c2ccoc2nc2c(OC)c(O)ccc12
. | . | 0.0% | -9% | CC(C)Cn1c(N)c(C(=O)CSc2nncs2)c(=O)n(C)c1=O
. | . | 2.2% | 21% | CCN1CCN(c2ccc(S(=O)(=O)N3CCCCC3)cc2NC(=O)c2sccc2C)CC1
-4 | -15% | -1.0% | 11% | O=C(O)COc1ccccc1/C=N/NC(=O)CSc1nc2ccccc2n1Cc1ccc(Cl)cc1
-3 | 13% | 0.2% | 7% | CCCCn1c(=N)n(CC(O)COc2ccccc2)c2ccccc21 (stereo not given)
. | 3% | -0.4% | 14% | CN(C(=O)c1ccccc1-c1ccccc1C(=O)O)c1ccccc1
. | . | -1.4% | -8% | CC(Oc1ccc(Br)cc1)C(=O)N(C)CC(=O)Nc1ccc(N2CCOCC2)cc1 (stereo not given)
. | 0% | 2.9% | 11% | CCN(CC)CCN(C(=O)c1ccc2c(c1)OCCO2)c1nc2cc(C)cc(C)c2s1
-1 | -19% | 5.3% | 1% | Cc1ccccc1C(=O)NNC(=O)CSc1nc2ccccc2c(=O)[nH]1
3 | ? | -3.5% | 10% | COc1cccc(-c2nnc3n2N=C(C(C)(C)C)CS3)c1

More structures.
GLA inh pH 4.5 | miR-21 FLuc | Rango-impB inh | Rango dissoc inh | Structure
0 | 16% | -1.6% | -1% | COC(=O)c1c(C)n(-c2ccc(C)cc2)c2ccc(O)cc12
. | -5% | 1.6% | 12% | COc1ccc(CN(C(=O)c2cc(=O)c3ccccc3o2)C2CCS(=O)(=O)C2)cc1 (stereo not given)
. | . | -2.4% | -4% | O=C(NCc1ccccn1)C(=O)NCC1OCCN1C(=O)c1ccc(Cl)cc1 (stereo not given)
-4 | -38% | . | . | O=C(Nc1ccc2ccccc2c1)C(=O)C1C(=O)Nc2ccccc21 (stereo not given)
-4 | -7% | -5.7% | 3% | COc1ccc(/C=N/Nc2ccccc2)cc1Cn1nc(C)c([N+](=O)[O-])c1C
. | . | -0.7% | -2% | O=C(COc1ccc2c(-c3ccccc3)cc(=O)oc2c1)NC(Cc1c[nH]c2ccccc12)C(=O)O (stereo not given)
5 | -3% | 1.1% | 9% | O=C(Nn1cnnc1)C1Cc2ccccc2CN1S(=O)(=O)c1ccc(F)cc1 (stereo not given)
. | 2%&-2% | 2.8% | 43% | CCC1CCCCN1CCCNC(=O)c1c(O)nc2cc(C)ccn2c1=O (stereo not given)

A portion of the library, so the mix of outcomes need not match the whole.
